Mtb growth: Mycobacterium tuberculosis H37Rv growth inhibition, cell based, confirmatory dose response (AID 1949) | inhibition, % at 10 µg/mL; hits with a dose series show IC50 in µg/mL | actives 1.6% (n = 100,000) | most inactive calls were filed without a number and no value below 0 was filed;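 active = confirmed in a dose series; inconclusive = about 50% or more but not retested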;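 note: bacteria grown 7 days with compound before Alamar blue readout; 0% = untreated bacteria and 100% = reference antibiotic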
* hit, by the source's call; i = inactive; ? = inconclusive. Only part of the results is shown. The share of hits here may be higher or lower than overall.

Molecule | Mtb growth
O=C(c1ccc(Br)o1)N1CCN(c2ccc(C(F)(F)F)cc2[N+](=O)[O-])CC1 | 32%
O=C(Nc1cccc(F)c1)c1cc2cc(Cl)cc(Cl)c2oc1=O | 1%
O=C(CSc1nc(-c2ccccc2)nc2ccccc12)Nc1nccs1 | i
COC(=O)c1ccc(COc2ccc(OC)cc2)cc1 | i
COc1ccc(CNC(=O)c2ccc(N(C)S(=O)(=O)c3ccc(C)cc3)cc2)cc1 | i
COc1ccc(-n2c(C)nnc2SCC(=O)Nc2ccc(Br)cc2C(F)(F)F)cc1 | i
O=C(CSc1nc2ccccc2s1)NC1CCCCCC1 | i
Cn1cc(CNC(=O)c2sc3cc([N+](=O)[O-])ccc3c2Cl)cn1 | i
CCc1ccc(NS(=O)(=O)c2ccc(OC)c(C)c2C)cc1 | i
Cc1cc(S(=O)(=O)NCC(=O)O)ccc1F | 0%
CCCC(=O)Nc1cccc(-c2nc3ncccc3o2)c1C | 12%
Cc1ccc(N2CCN(C(=O)N3CCOCC3)CC2)c(C)c1 | i
O=C1C2ON(c3ccc(Br)cc3)C(c3cccnc3)C2C(=O)N1C1CCCCC1 (stereo not given) | 3%
COc1ccc(Oc2coc3cc(OCC(=O)Nc4ccc(Cl)cc4)ccc3c2=O)cc1 | i
c1ccc(-c2nnc3sc(-c4ccncc4)nn23)cc1 | i
CCOCC(=O)Nc1ccc(C)c(Cl)c1 | 40%
CNC(=O)CSc1nnc(COc2ccccc2C)n1Cc1ccccc1 | i
O=C(Nc1ccc(Br)cc1Cl)C1CCCO1 (stereo not given) | i
Cc1cccc(CSc2nc(N)cc(=O)[nH]2)c1 | i
Cn1c(SCc2nc3ccccc3s2)nnc1-c1ccncc1 | i
O=C(CC(c1ccccc1)c1cc(Br)ccc1O)NCC1(c2ccccc2)CCOCC1 (stereo not given) | 22%
Cc1cccc(NC(=S)NCCCN2CCOCC2)c1C | i
CCN(CC)CCCN1C(=O)C(=O)/C(=C(/O)c2cnn(-c3ccccc3)c2C)C1c1ccco1 (stereo not given) | i
O=C(Nc1ccccc1I)c1ccc(NC(=O)c2ccco2)cc1 | i
CCOc1ccc(C(=O)NN2C(=O)C3C4C=CC(O4)C3C2=O)cc1 (stereo not given) | i
CCCCNCCOCCOc1c(OC)cccc1OC | i
C=CCOc1c(Cl)cc(CNCCCN2CCOCC2)cc1OC | 0%
CCOc1ccc(OCCSc2nc3ccccc3o2)cc1 | ?
O=C(c1ccc(Cl)cc1)c1ccc(OCC(O)CN2CCCCC2)cc1 (stereo not given) | i
CCOc1ccc(-c2cc(C(=O)NCCCn3ccnc3)c3ccccc3n2)cc1 | 48%
COc1cc2ccccc2cc1C(=O)NC(=S)Nc1ccc(-c2nc3cc(C)ccc3o2)cc1 | i
O=[N+]([O-])c1cccc(COc2ccccc2CO)c1 | i
Cn1c(Cc2ccc(Cl)cc2)nc2ccccc21 | 1%
COC(=O)c1sc2cc(NC(=S)NCc3ccc(S(N)(=O)=O)cc3)ccc2c1Cl | i
O=C(CN(c1ccccc1Cl)S(=O)(=O)c1ccccc1)NC1CCCCCC1 | 7%
Cc1nnc(SCc2ccc(Cl)cc2)[nH]c1=O | i
O=C(NCc1ccc2c(c1)OCO2)C1CC1 | i
Cc1cccc(OCc2nnc(SCC(=O)Nc3cccc(Cl)c3C)n2C)c1C | 4%
O=C(NCc1ccc(F)cc1)Nc1ccccc1 | 7%
O=C(Nc1ccc(Cl)cc1C(=O)Nc1cccc(Cl)c1)c1ccco1 | 1%
O=C(CCn1nc(-c2ccc(Cl)cc2)c2ccccc2c1=O)NCc1ccccc1 | i
O=C(NCc1ccccc1)C(=O)NC1CC1 | i
Cc1ccc(C)c(OCc2nnc(NC(=O)c3ccccc3)s2)c1 | i
Cc1cccc(C)c1NS(=O)(=O)c1ccc2c(c1)OCCO2 | 2%
CCOc1cc(C(=O)NC2C3CC4CC(C3)CC2C4)cc(OCC)c1OCC (stereo not given) | i
COc1ccccc1N1CCN(C(=O)CN(c2cc(Cl)cc(Cl)c2)S(C)(=O)=O)CC1 | 6%
Cc1ccccc1NC(=O)c1[nH]cnc1C(=O)Nc1ccc(F)cc1 | 33%
O=C(c1ccccc1Br)N1CCN(c2ccc([N+](=O)[O-])cc2C(F)(F)F)CC1 | 7%
O=C(NCc1cccnc1)C1CC(=O)N(c2ccc(F)cc2)C1 (stereo not given) | i
COc1cc(C(=S)N2CCCC2)cc(Cl)c1OCC(=O)Nc1ccc(C)cc1C | 1%
COc1ccccc1OCCCC(=O)Oc1ccc(C)c(C)c1 | 3%
COc1ccc(NC(=O)CCn2c(=O)oc3ccccc32)cc1 | 2%
Oc1ccccc1-c1nc(Nc2ccc(F)cc2)c2ccccc2n1 | i
COc1ccc(N(CC(=O)Nc2ccc3c(c2)oc2ccccc23)S(=O)(=O)c2ccccc2)cc1 | i
CCN(CC)c1ccc(NC(=O)NC2CCCCC2)cc1 | i
COc1cc(OC)cc(C(=O)NCCSc2ccccc2)c1 | i
CCOc1ccc(NC(=O)Nc2ccc(C)c([N+](=O)[O-])c2)cc1 | i
CC(C)C(=O)Nc1cccc(C(=O)N2CCc3ccccc3C2)c1 | i
O=C(CSCc1ccccc1)Nc1cccc(C(=O)Nc2nccs2)c1 | i
CCOc1ccccc1NC(=O)CSc1nc2ccc(NC(=O)c3ccccc3Cl)cc2s1 | 1.2µg/mL*

Reprinted from the part before: 10 entries, then new ones.
Molecule | Mtb growth
COc1ccccc1OCCCC(=O)Oc1ccc(C)c(C)c1 | 3%
COc1ccc(NC(=O)CCn2c(=O)oc3ccccc32)cc1 | 2%
Oc1ccccc1-c1nc(Nc2ccc(F)cc2)c2ccccc2n1 | i
COc1ccc(N(CC(=O)Nc2ccc3c(c2)oc2ccccc23)S(=O)(=O)c2ccccc2)cc1 | i
CCN(CC)c1ccc(NC(=O)NC2CCCCC2)cc1 | i
COc1cc(OC)cc(C(=O)NCCSc2ccccc2)c1 | i
CCOc1ccc(NC(=O)Nc2ccc(C)c([N+](=O)[O-])c2)cc1 | i
CC(C)C(=O)Nc1cccc(C(=O)N2CCc3ccccc3C2)c1 | i
O=C(CSCc1ccccc1)Nc1cccc(C(=O)Nc2nccs2)c1 | i
CCOc1ccccc1NC(=O)CSc1nc2ccc(NC(=O)c3ccccc3Cl)cc2s1 | 1.2µg/mL*
COc1cc([N+](=O)[O-])ccc1NC(=S)Nc1nn(Cc2ccc(Cl)cc2Cl)cc1Cl | i
O=C(Nc1nc2c(s1)CCCC2)c1ccc(Br)o1 | 3%
CCc1ccc(C2C(C(=O)OCC(C)C)=C(C)NC3=C2C(=O)CC(c2cccs2)C3)s1 (stereo not given) | i
CCOc1cc(CN)cc(Cl)c1OC | i
CC1CCN(C(=O)Cn2cnc3sc(-c4ccccc4)cc3c2=O)CC1 | i
Cc1ccc(S(=O)(=O)NCc2ccccc2C)cc1 | 4%
COc1ccc(-n2nc3ccc(NC(=O)c4cc5ccccc5o4)cc3n2)cc1 | i
COc1cc(OC)c(NC(=O)COc2ccc(Cl)cc2Br)cc1Cl | 1%
Brc1ccc(-c2nc(-c3ccncc3)no2)o1 | i
COC(=O)c1cc(-c2ccccc2)sc1NC(=O)c1cnccn1 | 2%
CC(=O)Nc1ccc(NC(=O)CSc2nc3sc(C)c(C)c3c(=O)n2C)cc1 | i
COCCCNC(=O)c1c(NC(=O)c2sc3cccc(Cl)c3c2Cl)sc2c1CCCC2 | i
O=C(Nc1ccc2c(c1)OCCO2)c1ccc(-c2ccccc2)cc1 | i
O=C(COc1ccc2oc3c(c2c1)CCCC3)Nc1ccncc1 | i
Nc1ccccc1Oc1c(F)c(F)c(Oc2ccccc2N)c(F)c1F | 3%

(next part)
molecule	Mtb growth
COc1ccc(Nc2ncc(-c3cc4cc(OC)ccc4oc3=O)s2)cc1	i
COc1ccc(-n2c3c(cc(C(=O)NCc4ccccc4)c2=O)C(=O)CCC3)cc1	i
O=C1CCCC2=C1C(c1cccc3ccccc13)C1=C(CCCC1=O)N2	i
O=C(CCc1ccccc1)N1CCN(c2ccccc2)CC1	i
O=C(Nc1ccc(Cl)cn1)c1ccc(COc2ccc3ccccc3c2)o1	i
Cc1ccc2oc(C(=O)Nc3ccc(Br)cc3)c(C)c2c1	i
Cc1cccc(NC(=O)C(=O)NCc2ccc(C(C)C)cc2)c1	i
CC(Sc1cccc2cccc(C(=O)O)c12)C(=O)O (stereo not given)	i
CC(=O)N1CCN(c2ccccc2NC(=O)c2cccs2)CC1	i
C#CCSc1nnc(-c2ccncc2)o1	6%
O=C(Oc1ccc(C2CCCCC2)cc1)c1cccs1	13µg/mL*
Cc1c(Cl)ccc(OCCCNCCN(C)C)c1C	30%
COc1ccc(S(=O)(=O)N(CC(=O)Nc2cc(Cl)ccc2Cl)c2ccc(C)cc2)cc1	i
O=C(NCCc1ccccc1)c1ccc(Cl)cc1Cl	i
COc1ccc(CNCC(O)c2nnn(C)n2)cc1OC (stereo not given)	1%

Quoted at random: two compounds from above
molecule	Mtb growth
COc1ccc(Nc2ncc(-c3cc4cc(OC)ccc4oc3=O)s2)cc1	i
COc1ccc(CNCC(O)c2nnn(C)n2)cc1OC (stereo not given)	1%

(cont.)
molecule	Mtb growth
COc1ccc(S(=O)(=O)N(C)CC(=O)Nc2ccc(Br)cc2)cc1OC	3%
COc1ccc(-n2c(C)ccc2C)nc1	11%
O=C(CCC1CCCCC1)NC1CCC(NC(=O)CCC2CCCCC2)CC1 (stereo not given)	2%
C=CCC1(C#N)C(=S)NC(C)=C(C(=O)OCC)C1c1cccs1 (stereo not given)	i
Cc1cc(/C=C(/C#N)c2cccc(Cl)c2)c(C)n1C	13%
CCOC(=O)C1=C(C)NC(=O)NC1c1cc(I)ccc1OC (stereo not given)	4%
O=C(NCCc1ccccc1)C1(c2ccccc2)CCOCC1	i
CCOC(=O)CCc1c(C)c2ccc(OCc3ccc(Br)cc3F)cc2oc1=O	i
Cc1c(C(=O)NC(=S)Nc2ccc(-c3nc4ccccc4s3)cc2)cccc1[N+](=O)[O-]	i
O=C(NCCN1CCCC1)c1ccccc1F	i
COc1ccccc1C(=O)Nc1ccc(S(=O)(=O)NC(C)C)cc1	i
O=C1c2ccccc2C(=O)N1c1ccc2nc(SCc3ccc(F)cc3)sc2c1	i
O=C(NCCN1CCOC1=O)C(=O)NCCN1CCOC1=O	i
O=C(Cc1coc2ccc3ccccc3c12)Nc1ccccc1Br	i
CCCNC(=O)C1CC(=O)N(c2ccc(Br)cc2)C1 (stereo not given)	i
COc1ccccc1N1CCN(S(=O)(=O)c2ccc(Cl)s2)CC1	i
CC(C)(C)c1ccc(SCC(N)=O)cc1	?
O=C(Nc1cccc(Br)c1)c1ccccc1C(F)(F)F	i
O=C(c1cccc(Cl)c1)N1CCC(N2CCN(c3ccccc3)CC2)CC1	3%
COc1ccc(N(C(=O)c2ccccc2[N+](=O)[O-])C(C)C2CC2)cc1 (stereo not given)	i
Cc1ccc(OCCCn2cncn2)c([N+](=O)[O-])c1	i
CCCCc1ccc(NC(=O)C2CCCC2)cc1	1%
Cc1ccc(S(=O)(=O)N2C(=O)CCC2C(=O)NC23CC4CC(CC(C4)C2)C3)cc1 (stereo not given)	i
CCN(CC)Cc1c(O)ccc2c(=O)c(-c3ccccc3Cl)c(C(F)(F)F)oc12	i
CCOc1ccc(CN2CCN(Cc3cccc(F)c3)CC2)cc1	i
CC(C)(C)CC(=O)Nc1ccc(Oc2ccccc2)cc1	1%
CS(=O)(=O)N(CC(=O)N1CCc2ccccc2C1)Cc1ccccc1	i
CC1=CC(C)(C)N2C(=O)C(=O)c3cc(OC(=O)CN4C(=O)c5cccc6cccc(c56)C4=O)cc1c32	1%
Cc1ccccc1OCC(=O)NCC(=O)OCC(=O)c1ccc(Br)cc1	i
Cc1ccc2c(c1)C(O)(CC(=O)c1ccco1)C(=O)N2 (stereo not given)	i
CS(=O)(=O)c1sc2nc(-c3ccccc3)cc(-c3ccccc3)c2c1N	i
C=C1C2(C(=O)N3CCN(c4ccccc4F)CC3)CCC(C2)C1(C)C (stereo not given)	11%
O=C(NNC(=S)Nc1ccc(F)cc1F)Nc1ccc(Br)cc1	i
CCc1cccc(CC)c1NC(=O)CS(=O)(=O)Cc1ccccc1	1%
O=C1CC(c2cccs2)Sc2nc3ccccc3n21 (stereo not given)	i
CCOc1cccc(C(=O)Nc2ccc3oc(-c4cccc(F)c4)nc3c2)c1	1%
Cc1cc(NS(=O)(=O)c2ccc(NC(=O)C(C)Oc3cccc(C)c3C)cc2)nc(C)n1 (stereo not given)	i
CCOC(=O)c1sc(NC(=O)CSc2nnc3c4ccccc4n(CC)c3n2)nc1C	i
COc1ccccc1NC(=O)CCOc1cccc(C)c1	1%
Cc1ccccc1CNC(=O)CN(c1cccc(Cl)c1)S(C)(=O)=O	i
COc1ccc(C(=O)NC(=S)Nc2ccc([N+](=O)[O-])cc2C)cc1Br	i
Cc1ccc(C23CC4CC(CC(C(=O)NN5CCN(CCO)CC5)(C4)C2)C3)cc1	i
CCNC(=O)C(=O)NCC1CCCN1CC (stereo not given)	i
CCOc1cc(C(=O)Nc2ccccc2C(=O)OC)ccc1Cl	i
Cc1ccccc1CSCCNS(=O)(=O)c1ccc(F)cc1	1%
O=C(Nc1c(C(=O)NCc2cccnc2)cnn1-c1ccccc1Cl)c1ccccc1Cl	i
Cc1cc(NC(=O)CSc2nnc(-c3ccccc3Cl)n2C)ccc1Br	i
CCCCC(=O)Nc1cccc(NC(=O)c2cccc(OCC)c2)c1	7%
COc1cccc(CN2CCN(Cc3ccccc3Cl)CC2)c1	i
O=C(Nc1ccc(I)cc1)C(Cc1ccccc1)N1C(=O)C2C3CCC(C3)C2C1=O (stereo not given)	i
O=c1c(Cc2cc([N+](=O)[O-])ccc2O)c(O)nc2n1CCCS2	i
Cc1[nH]c2ccccc2c1C(=O)C(=S)NCCc1ccccc1	i
Cc1c(Cl)cccc1N(CC(=O)Nc1ccccc1C(=O)NCc1ccccc1)S(C)(=O)=O	0%
